Assay outcomes as filed in PubChem BioAssay.
Vaccinia Venus – vaccinia inhibition (Venus reporter). Vaccinia virus Venus reporter expression, fluorescence. Potency, µM (series often up to 36.5 µM), inactives show at the top dose activity change, negative = inhibition, hits mostly inhibitors. 0.46% of 330,000 active. AID 720580; active means well fitted inhibition curve with a large enough effect; inconclusive means small, poorly fitted or top-dose-only effect; inactive means no such curve, though single readings can be large or run the other way; tested in A549 cells; note: nearly all actives have a fitted effect of over 30% in size; inactives centre near -10
Vaccinia mCherry – vaccinia inhibition (mCherry reporter); 0.63% of 310,000 active; Vaccinia virus mCherry reporter infection, fluorescence; about a quarter of the inactives have no number; AID 720579; Potency, µM (doses to about 36.5 µM), for inactives: top-dose activity change, negative = inhibition, most hits filed as inhibitors; active = well fitted inhibition curve with a large enough effect; inconclusive = small, poorly fitted or top-dose-only effect; inactive = no such curve, though single readings can be large or run the other way; tested in A549 cells; note: nearly all actives have a fitted effect of over 35% in size; inactives centre near -10
Numbers without * were called inactive. % is set by controls: 0 for no effect and ±100 for the full control effect; potency is the fitted concentration of half-maximal effect.

What do the screens show for `Cc1ccc(C(=O)Nc2cccc(C(F)(F)F)c2)cc1Nc1ncnc2nc[nH]c12`?
Vaccinia Venus: inconclusive; Vaccinia mCherry: inconclusive

How did CCOC(=O)c1c(NC(=O)CSc2cn(CCNC(=O)c3c(F)cccc3F)c3ccccc23)sc2c1CCCC2 do in these assays?
Vaccinia Venus: -10%; Vaccinia mCherry: 2%

What do the screens show for `CC(C)C[C@H]1CNC(=O)C(=O)N1C[C@@H]1CCCN1C[C@H](Cc1ccc(O)cc1)N1C[C@H](Cc2ccccc2)N(CC2CCCCC2)C(=O)C1=O`?
Vaccinia Venus: -1%; Vaccinia mCherry: 3%

Results for Cc1ccnc(NS(=O)(=O)c2ccc(N3C(=O)C4CCCCC4C3=O)cc2)n1 (centres undefined) ?
Vaccinia Venus: 6%; Vaccinia mCherry: inactive

What do the screens show for `Oc1c(/C=N/Nc2cccc3cccnc23)ccc2ccccc12`?
Vaccinia Venus: 2%; Vaccinia mCherry: -11%

How did Cc1nn(C)cc1CN1CCCC(C(=O)c2ccc(-c3ccccc3)c(F)c2)C1 (centres undefined) do in these assays?
Vaccinia Venus: -17%; Vaccinia mCherry: inactive

How did O=C(NCCc1ccc(Cl)cc1)c1ccc(CSCc2ccccc2Cl)o1 do in these assays?
Vaccinia Venus: -9%; Vaccinia mCherry: inactive

How did COc1ccccc1C(C)NC(=O)c1cc(=O)[nH]c2ccccc12 (centres undefined) do in these assays?
Vaccinia Venus: -10%; Vaccinia mCherry: -8%

Results for COc1ccccc1NC(NC(=O)c1ccco1)C(=O)c1ccccc1 (centres undefined) ?
Vaccinia Venus: -11%; Vaccinia mCherry: -8%

How did CN(C)CCN(C(=O)/C=C/c1cccs1)c1nc2ccc(F)cc2s1 do in these assays?
Vaccinia Venus: inconclusive; Vaccinia mCherry: inconclusive

What do the screens show for `CCCCNCCS(=O)(=O)NCc1ccc(OC)cc1`?
Vaccinia Venus: 1%; Vaccinia mCherry: -10%

What do the screens show for `COc1ccc(OC)c(-c2csc(NC(=O)Cc3ccccc3OC)n2)c1`?
Vaccinia Venus: inconclusive; Vaccinia mCherry: -23%

What do the screens show for `O=C1CC(NS(=O)(=O)c2cc(F)ccc2F)CN1c1ccc2c(c1)OCCO2` (centres undefined)?
Vaccinia Venus: -11%; Vaccinia mCherry: -15%

How did N#C/C(=C\c1cn(CCOc2ccccc2)c2ccccc12)C(=O)NCc1cccs1 do in these assays?
Vaccinia Venus: -9%; Vaccinia mCherry: -24%

What do the screens show for `Cc1ccc(-c2nc(SCc3ccc(Br)cc3)n3[nH]c(=O)cc3n2)cc1`?
Vaccinia Venus: -19%; Vaccinia mCherry: -14%

Results for CN(CC(=O)Nc1ccc(Cl)c(C(F)(F)F)c1)C(=O)CC1Sc2ccccc2NC1=O (centres undefined) ?
Vaccinia Venus: inconclusive; Vaccinia mCherry: -22%

What do the screens show for `Cc1ccc2c(C)c(C(=O)N(Cc3ccc(N(C)C)cc3)Cc3ccco3)oc2c1C`?
Vaccinia Venus: -8%; Vaccinia mCherry: -17%

Results for COc1ccc(CCNC(=O)C(CC(C)C)N2Cc3ccccc3C2=O)c(OC)c1OC (centres undefined) ?
Vaccinia Venus: -7%; Vaccinia mCherry: -12%

What do the screens show for `COc1ccc(C2(CNC(=O)C(=O)Nc3ccc(C)cc3)CCOCC2)cc1`?
Vaccinia Venus: -13%; Vaccinia mCherry: -2%

What do the screens show for `CCN(CC)c1ccc2cc(NC(=O)CCC(=O)O)c(=O)oc2c1`?
Vaccinia Venus: -8%; Vaccinia mCherry: -9%

2 entries drawn at random from the list so far:
Results for COc1ccccc1NC(NC(=O)c1ccco1)C(=O)c1ccccc1 (centres undefined) ?
Vaccinia Venus: -11%; Vaccinia mCherry: -8%

Results for CN(CC(=O)Nc1ccc(Cl)c(C(F)(F)F)c1)C(=O)CC1Sc2ccccc2NC1=O (centres undefined) ?
Vaccinia Venus: inconclusive; Vaccinia mCherry: -22%

At a glance, some entries already given:
How did N#C/C(=C\c1cn(CCOc2ccccc2)c2ccccc12)C(=O)NCc1cccs1 do in these assays?
Vaccinia Venus: -9%; Vaccinia mCherry: -24%

What do the screens show for `Cc1ccc(-c2nc(SCc3ccc(Br)cc3)n3[nH]c(=O)cc3n2)cc1`?
Vaccinia Venus: -19%; Vaccinia mCherry: -14%

Results for CN(CC(=O)Nc1ccc(Cl)c(C(F)(F)F)c1)C(=O)CC1Sc2ccccc2NC1=O (centres undefined) ?
Vaccinia Venus: inconclusive; Vaccinia mCherry: -22%

What do the screens show for `Cc1ccc2c(C)c(C(=O)N(Cc3ccc(N(C)C)cc3)Cc3ccco3)oc2c1C`?
Vaccinia Venus: -8%; Vaccinia mCherry: -17%

Results for COc1ccc(CCNC(=O)C(CC(C)C)N2Cc3ccccc3C2=O)c(OC)c1OC (centres undefined) ?
Vaccinia Venus: -7%; Vaccinia mCherry: -12%

What do the screens show for `COc1ccc(C2(CNC(=O)C(=O)Nc3ccc(C)cc3)CCOCC2)cc1`?
Vaccinia Venus: -13%; Vaccinia mCherry: -2%

What do the screens show for `CCN(CC)c1ccc2cc(NC(=O)CCC(=O)O)c(=O)oc2c1`?
Vaccinia Venus: -8%; Vaccinia mCherry: -9%

Carrying on.
What do the screens show for `CCCCNC(=O)O[C@H]1C[C@@H]2CCN3C(=O)CCC(C)(C)[C@H](C1)[C@H]23`?
Vaccinia Venus: -13%; Vaccinia mCherry: inactive

How did COc1ccccc1-c1cc(NC(C)=O)c2ncc(-c3ccccc3)n2c1 do in these assays?
Vaccinia Venus: 2%; Vaccinia mCherry: -15%

How did Cc1noc(C)c1S(=O)(=O)N1CCC(C(=O)N2CCC(C)CC2)CC1 do in these assays?
Vaccinia Venus: -15%; Vaccinia mCherry: -13%

What do the screens show for `CC(=O)NCCNC(=O)CCCn1c(=O)[nH]c2ccsc2c1=O`?
Vaccinia Venus: -2%; Vaccinia mCherry: -3%

How did Cc1ccc(NC(=O)c2ccc(C(C)(C)C)cc2)cc1[N+](=O)[O-] do in these assays?
Vaccinia Venus: -10%; Vaccinia mCherry: inactive

Results for CC(C)(C)OC(=O)C[C@H]1C/C=C\C[C@H](CC(=O)NCCO)C(=O)N[C@@H](Cc2ccccc2)COC1=O ?
Vaccinia Venus: -13%; Vaccinia mCherry: inactive

How did CCCn1c(=O)c(-c2ccccc2)c(O)c2ccccc21 do in these assays?
Vaccinia Venus: -8%; Vaccinia mCherry: -17%

What do the screens show for `Brc1ccc(-c2nc(N3CCN(c4ccccc4)CC3)c3ccccc3n2)cc1`?
Vaccinia Venus: -11%; Vaccinia mCherry: -12%

What do the screens show for `Clc1ccc(CSc2nnc(Cn3cnc4ccccc43)o2)cc1`?
Vaccinia Venus: inconclusive; Vaccinia mCherry: -27%

Results for CCCOc1ccc(Cc2c(COCC)[nH]c(=S)[nH]c2=O)cc1 ?
Vaccinia Venus: -2%; Vaccinia mCherry: -4%

Results for CC(C)CC(=O)N1CCN(Cc2cccc(F)c2)CC1 ?
Vaccinia Venus: -7%

Results for Cc1ccc(NC(=O)CSc2nnc(NC(=O)C3CC3)s2)cc1 ?
Vaccinia Venus: -23%; Vaccinia mCherry: -4%

What do the screens show for `Cc1ccc(/C=C2\SC(=S)N(/N=C/c3cc([N+](=O)[O-])ccc3O)C2=O)o1`?
Vaccinia Venus: 12%; Vaccinia mCherry: -2%

Results for Cc1cccc(NC(=S)N2CCN(C(=O)C3CCCO3)CC2)c1 (centres undefined) ?
Vaccinia Venus: -5%; Vaccinia mCherry: inactive

What do the screens show for `COc1ccc(CCn2c(O)cc3nn(-c4nc5ccccc5s4)c(=O)c-3c2C)cc1`?
Vaccinia Venus: -6%; Vaccinia mCherry: inactive

Results for COc1ccccc1N1CCN(c2ncc(C(=O)N3CCN(c4cccc(Cl)c4)CC3)c3ccccc23)CC1 ?
Vaccinia Venus: -1%; Vaccinia mCherry: inactive

Results for COc1ccccc1CC(=O)Nc1sc2c(c1C(N)=O)CCCC2 ?
Vaccinia Venus: -22%; Vaccinia mCherry: inactive

How did CCOC(=O)C1(Cc2ccccc2C)CCCN(C(=O)c2ccccn2)C1 (centres undefined) do in these assays?
Vaccinia Venus: -13%; Vaccinia mCherry: -3%

Results for C[C@@H]1CN([C@@H](C)CO)C(=O)CCCn2nncc2CO[C@@H]1CN(C)S(=O)(=O)c1cn(C)cn1 ?
Vaccinia Venus: -13%; Vaccinia mCherry: inactive

Results for Cc1onc(-c2ccccc2)c1C(=O)NCC1COc2ccccc2O1 (centres undefined) ?
Vaccinia Venus: -15%

What do the screens show for `COc1cccc(COC(=O)c2cc(=O)[nH]c3ccc(S(=O)(=O)N4CCOCC4)cc23)c1OC`?
Vaccinia Venus: -24%; Vaccinia mCherry: -25%

What do the screens show for `CCCOCC1CC(CCc2nc(=S)[nH][nH]2)C(=O)O1` (centres undefined)?
Vaccinia Venus: -5%; Vaccinia mCherry: -8%

How did Cc1cc2cc(CNC(=O)C3CCCC3)ccc2n1C do in these assays?
Vaccinia Venus: 17%; Vaccinia mCherry: -10%

Results for COc1cc2c(cc1OC)CN(Cc1ccc(F)cc1)CC2 ?
Vaccinia Venus: -5%; Vaccinia mCherry: -9%

How did O=C(NN=C1CCC(c2ccccc2)CC1)c1ccccc1-n1cccc1 (centres undefined) do in these assays?
Vaccinia Venus: -1%; Vaccinia mCherry: -11%

What do the screens show for `O=C(Cn1ccc2cc(S(=O)(=O)N3CCCCCC3)ccc21)NCc1cccc(Cl)c1`?
Vaccinia Venus: -12%; Vaccinia mCherry: -15%

What do the screens show for `CCn1c(/C(C#N)=C/c2ccccc2Cl)nc2ccccc21`?
Vaccinia Venus: 8%; Vaccinia mCherry: 8%

Results for COCCn1c(=NC(=O)c2sc3ccccc3c2Cl)sc2cc(S(N)(=O)=O)ccc21 ?
Vaccinia Venus: inconclusive; Vaccinia mCherry: inconclusive

Results for Cc1ccc(-c2csc(NC(=O)CCNC(=O)c3ccc(Cl)cc3)n2)cc1 ?
Vaccinia Venus: inconclusive; Vaccinia mCherry: inconclusive

Results for COC(=O)C1=C(COc2ccccc2)NC(=O)NC1c1ccc2ccccc2c1 (centres undefined) ?
Vaccinia Venus: -17%; Vaccinia mCherry: -7%

What do the screens show for `Cc1ccc(-c2noc(CCC(=O)Nc3cccc(C#N)c3)n2)cc1`?
Vaccinia Venus: inconclusive

Results for O=C(c1ccc(Cl)cc1)N1CCOc2ccccc21 ?
Vaccinia Venus: -18%; Vaccinia mCherry: -14%

What do the screens show for `CS(=O)(=O)N(Cc1ccccc1Cl)c1ccc(C(=O)N2CCCC2)cc1`?
Vaccinia Venus: 2%; Vaccinia mCherry: inactive

What do the screens show for `COC(=O)C1=C(c2ccc(Cl)c(C(F)(F)F)c2)C[C@@H]2CC[C@H]1N2C(=O)NCCNC(C)=O`?
Vaccinia Venus: -10%; Vaccinia mCherry: inactive

Results for CN1c2ccccc2Oc2nnc(N3CCN(Cc4ccccc4)CC3)cc21 ?
Vaccinia Venus: -27%; Vaccinia mCherry: inactive

Results for C[C@@H]1CCCCO[C@@H](CN(C)C(=O)Cc2ccccc2)[C@@H](C)CN([C@H](C)CO)C(=O)c2cc(NC(=O)C3CCCCC3)ccc2O1 ?
Vaccinia Venus: -21%; Vaccinia mCherry: -18%

What do the screens show for `OCCN(CCO)c1ccc(C(c2ccccc2Cl)c2ccc(N(CCO)CCO)cc2Cl)c(Cl)c1`?
Vaccinia Venus: inconclusive; Vaccinia mCherry: inconclusive

Results for C=CCn1c(O)c(N=Nc2ccccc2C)c2ccccc21 ?
Vaccinia Venus: 3%; Vaccinia mCherry: inconclusive

How did Cc1ccccc1C(NC(=O)C1CCN(Cc2ccc(Oc3ccccc3)cc2)CC1)c1ccsc1 (centres undefined) do in these assays?
Vaccinia Venus: -16%; Vaccinia mCherry: -12%

Results for Nc1cccc2c1C(=O)N(C(=O)/C=C/c1ccc(F)cc1)C2=O ?
Vaccinia Venus: inconclusive; Vaccinia mCherry: inconclusive

Results for COC(=O)c1ccc(OC)c(CN2CCCN(Cc3ccc(C)cc3)S2(=O)=O)c1 ?
Vaccinia Venus: -1%; Vaccinia mCherry: -2%

Results for Cc1ccccc1N=C1Nc2ccccc2N[C@]12C[C@H]1CCCC(=O)N3CC[C@@H](C2)[C@@H]13 ?
Vaccinia Venus: -11%; Vaccinia mCherry: -6%

Results for CCn1c(=O)sc2cc(NS(=O)(=O)c3ccc(C)cc3)ccc21 ?
Vaccinia Venus: -10%; Vaccinia mCherry: -8%

Results for O=C(Nc1csc(Cc2c(Cl)cccc2Cl)n1)NN1CCOCC1 ?
Vaccinia Venus: -13%; Vaccinia mCherry: -1%

Results for CCOc1ccccc1C(=O)N(C)Cc1cc2ccccc2[nH]c1=O ?
Vaccinia Venus: -22%

How did CC(C)(C)c1cc(C(F)(F)F)n2ncc(-c3ccccc3)c2n1 do in these assays?
Vaccinia Venus: -3%; Vaccinia mCherry: inactive

How did O=C(NCc1cccc(Cl)c1)c1ccc(-c2csnn2)cc1 do in these assays?
Vaccinia Venus: -29%; Vaccinia mCherry: inactive

Results for CCc1nc2c(OCc3ccc(Cl)cc3Cl)cccn2c1N(C)C(=O)c1ccccc1F ?
Vaccinia Venus: -21%; Vaccinia mCherry: -10%

How did Cc1nn(C)c(Oc2ccccc2)c1CCNC(=O)CC(C)C do in these assays?
Vaccinia Venus: -11%; Vaccinia mCherry: inactive

Results for O=C(c1cc2ccccc2oc1=O)N(Cc1cccs1)CC1CCCO1 (centres undefined) ?
Vaccinia Venus: -13%; Vaccinia mCherry: inactive

What do the screens show for `Cc1ccc(F)c(S(=O)(=O)NC(=O)C2(C)CCN2C(=O)CCc2ccccc2)c1` (centres undefined)?
Vaccinia Venus: -6%; Vaccinia mCherry: -1%

What do the screens show for `COc1ccc(NCc2nnc3n2CCCCC3)c(OC)c1`?
Vaccinia Venus: 1%; Vaccinia mCherry: 1%

How did CC(C)NC(=O)NC(=O)COC(=O)c1cccc(S(=O)(=O)N2CCCCC2)c1 do in these assays?
Vaccinia Venus: -13%; Vaccinia mCherry: -23%
